DUX4 txn inh: inhibitors of DUX4-driven ZSCAN4 reporter expression, primary screen, 293T cells, Gaussia and Italica luciferase; 37,000 compounds, 0.8% hits; activity change, negative = inhibition, % (test concentration not listed); 293T-iDUX4 ZSCAN4-Gaussia luciferase reporter, 24 h; hits give low values;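 active means -10% or lower and over 25 points stronger than a control reporter; inconclusive means -10% or lower with a smaller gap; inactive means above -10%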;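 further: 0% = median of neutral control wells and -100% = median of positive control wells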
DUX4 txn inh difference: second read-out of DUX4 txn inh, no call of its own (marks repeat the call); Gaussia minus Italica difference, %; measured here: selective DUX4 reporter inhibition;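 worked out from the two reporters; negative = selective loss of the DUX4 reporter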
DUX4 txn inh control: further read-out of DUX4 txn inh, marked with its call; activity change, negative = inhibition, %; measured here: Italica tet-on control reporter;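 0 = neutral control and -100 = positive control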
* hit, by the source's call; ? = inconclusive; / = no result given.

item	DUX4 txn inh	DUX4 txn inh difference	DUX4 txn inh control	mol
1	-3	-5	2.6	CNC[C@H]1OCCCC[C@@H](C)Oc2ccc(NC(=O)C3CCCCC3)cc2C(=O)N([C@@H](C)CO)C[C@@H]1C
2	0	-2	1.7	O=C(CC1CC1)N1[C@@H]2CN(S(=O)(=O)c3ccccc3F)c3ccccc3[C@@H]2[C@@H]1CO
3	-2	1	-2.8	O=C(C[C@@H]1CC[C@H]2[C@@H](COC[C@H](O)CN2Cc2ccccc2F)O1)NC1CCC1
4	0	-1	0.8	C[C@@H]1CN([C@@H](C)CO)C(=O)c2ccccc2-c2ccccc2CO[C@H]1CN(C)C(=O)c1ccncc1
5	3	-4	7.1	C/C=C/c1ccc([C@H]2[C@@H](CO)N[C@@H]2CNC(=O)C2CCCCC2)cc1
6	-2	0	-1.7	C[C@H]1CN([C@@H](C)CO)C(=O)CCCn2cc(nn2)CO[C@@H]1CN(C)C(=O)Nc1ccc(N2CCCCC2)cc1
7	-2	-1	-1.3	CN(C)C(=O)c1ccc(-c2ccc(C3[C@H]4CNC[C@@H]3N4CC3CCCCC3)cc2)cc1 (stereo partly specified)
8	-4	-7	3.7	COc1ccc2c3c([nH]c2c1)[C@@H](CO)N(C(=O)c1cccnc1)CC31CN(C(=O)Nc2cccc(F)c2)C1
9	-3	-2	-0.3	O=C(C[C@H]1CC[C@@H]2[C@H](COC[C@H](O)CN2C(=O)Nc2ccc(Cl)cc2)O1)NC1Cc2ccccc2C1
10	10	7	2.2	CC(C)NC(=O)N1[C@H](CO)[C@@H](c2ccccc2)C12CN(C(=O)Cc1ccccc1)C2
11	-1	-7	5.3	COc1ccc(-c2ccc3n(c2=O)C[C@@H]2[C@@H](CO)[C@H](C(=O)N(C)C)[C@H]3N2Cc2ccncc2)cc1
12	0	-4	3.5	CNC(=O)C[C@H]1CC[C@@H]2[C@@H](COc3ccc(NC(=O)c4ccccc4Cl)cc3C(=O)N2C)O1
13	2	6	-4.0	C[C@@H]1CN([C@H](C)CO)C(=O)c2cccc(NS(=O)(=O)c3ccc(F)cc3)c2O[C@@H]1CN(C)S(=O)(=O)c1cccs1
14	?	/	/	CN(C)Cc1cn(CC[C@@H]2CC[C@H](NS(=O)(=O)c3ccc(-c4ccccc4)cc3)[C@H](CO)O2)nn1
15	3	3	-0.9	C[C@H]1CN([C@@H](C)CO)C(=O)c2cccc(NC(=O)NC3CCCCC3)c2O[C@@H]1CN(C)Cc1ccc(C(F)(F)F)cc1
16	24	25	-0.8	COCC#Cc1ccc([C@@H]2[C@H](CO)N3CCCCN(C(=O)CN(C)C)C[C@@H]23)cc1
17	9	-4	13	COc1ccc(NC(=O)N2CC(=O)N3[C@H](CO)[C@H](c4ccc(Br)cc4)[C@@H]3C2)cc1
18	2	-3	4.6	O=C(c1ccccn1)N1CC2(C1)[C@H](c1ccccc1)[C@H](CO)N2C(=O)C1CCCCC1
19	-3	-5	1.2	O=C(c1cccc(F)c1)N1CC2(C1)[C@@H](c1ccccc1)[C@H](CO)N2C(=O)C1CCC1
20	3	-2	4.9	O=C(C[C@@H]1CC[C@H]2[C@@H](COC[C@@H](O)CN2CC2CCOCC2)O1)NCC1CCCCC1
21	?	/	/	N#C[C@H]1[C@@H](c2ccccc2C2=CCCC2)[C@H](CO)N1S(=O)(=O)c1cccc(F)c1
22	-2	-1	-0.1	C[C@@H]1CCCCO[C@H](CN(C)C(=O)c2ccccc2)[C@@H](C)CN([C@@H](C)CO)C(=O)c2cc(NC(=O)C3CCCCC3)ccc2O1
23	?	/	/	COc1cccc(CN2CCC3(CC2)CN(C(=O)C2CC2)[C@@H](CO)c2[nH]c4cc(OC)ccc4c23)c1
24	8	4	3.7	Cc1ccc(-c2ccc([C@H]3[C@@H](CO)N4C(=O)CN(C(=O)c5ccncc5)C[C@@H]34)cc2)cc1
25	-1	-3	1.5	O=C(Nc1cccc(Cl)c1)N1C[C@@H]2[C@H](c3ccccc31)[C@H](CO)N2CC1CCOCC1
26	2	-1	2.3	CCCNC(=O)N(C)C[C@@H]1Oc2cc(-c3cccnc3)ccc2S(=O)(=O)N([C@@H](C)CO)C[C@H]1C
27	5	-5	9.7	O=C1CN(Cc2ccccc2)C[C@H]2[C@H](c3ccc(Br)cc3)[C@H](CO)N12
28	2	4	-1.5	O=C(C[C@@H]1C[C@H]2c3cc(NC(=O)Nc4ccc(C(F)(F)F)cc4)ccc3O[C@H]2[C@@H](CO)O1)NCc1cc(F)ccc1F
29	2	7	-5.0	C[C@H](NC(=O)C[C@@H]1C[C@@H]2c3cc(NS(=O)(=O)c4ccc(F)cc4)ccc3O[C@@H]2[C@H](CO)O1)c1ccccc1
30	0	2	-2.9	O=C(Cc1ccccc1)N1CC[C@@H]2[C@@H](CO)Nc3ccc(Br)cc3[C@@H]21
31	-6	-8	2.2	CCCNC(=O)Nc1ccc2c(c1)OC[C@H](C)N(CCC(F)(F)F)C[C@H](C)[C@H](OC)CN(C)C2=O
32	7	5	1.5	CCS(=O)(=O)N1CC2(CN(CC3CCOCC3)[C@H](CO)c3c2c2ccc(OC)cc2n3C)C1
33	16	1	14	O=C(NC1CCCC1)N1CC(=O)N2[C@@H](CO)[C@H](c3ccc(-c4cccnc4)cc3)[C@@H]2C1
34	2	2	0.6	CO[C@H]1CC[C@@H]2CCOc3c(C#N)cccc3C(=O)N(C)CC3(CCCCC3)CC(=O)N(C)C[C@H]1O2
35	3	0	3.0	C/C=C/c1ccc([C@H]2[C@@H](CO)N(C(=O)C3CCC3)[C@@H]2CN(CC)C(=O)CC)cc1
36	4	2	1.7	CN(C)CC(=O)N[C@H]1C=C[C@H](CC(=O)NCc2ccc(Cl)cc2)O[C@@H]1CO
37	8	4	4.1	CC(C)[C@@H](C)NC(=O)N(C)C[C@H]1OCc2ccccc2-c2c(n(C)c3ccccc23)C(=O)N([C@@H](C)CO)C[C@H]1C
38	0	-4	4.3	O=C(C[C@H]1CC[C@@H]2[C@H](COC[C@H](O)CN2C(=O)Nc2ccc(F)cc2)O1)NC1CCC1
39	14	0	13	C/C=C/c1ccc([C@@H]2[C@H]3CN(C(=O)CN(C)C)CCCCN3[C@H]2CO)cc1
40	?	/	/	O=C(Cc1cccnc1)N1CC(=O)N2[C@H](C1)[C@H](c1ccc(/C=C/c3ccccc3)cc1)[C@@H]2CO
41	?	/	/	Cc1ccccc1S(=O)(=O)N1C[C@@H](O)COC[C@H]2O[C@@H](CC(=O)N3CCC(Cc4ccccc4)CC3)CC[C@@H]21
42	-2	-8	6.2	CO[C@@H]1CN(C)C(=O)c2ccc(NC(=O)c3ccno3)cc2OC[C@@H](C)N(S(C)(=O)=O)C[C@@H]1C
43	0	1	-0.8	CNC[C@@H]1Oc2cc(-c3ccc(C(=O)N(C)C)cc3)ccc2S(=O)(=O)N([C@H](C)CO)C[C@H]1C
44	1	-1	1.8	C[C@H](CO)N1C[C@H](C)[C@@H](CN(C)C(=O)Cc2ccccc2)OCCCC[C@H](C)Oc2ccc(NC(=O)CCCN(C)C)cc2C1=O
45	6	3	2.7	COc1ccc(S(=O)(=O)Nc2cccc3c2O[C@@H](CN(C)CC2CCCCC2)[C@@H](C)CN([C@@H](C)CO)C3=O)cc1
46	7	4	3.2	CN(C)c1ccc2c(c1)[C@@H]1C[C@@H](CC(=O)NCc3cccc(F)c3)O[C@H](CO)[C@@H]1O2
47	?	/	/	COc1cccc(-c2ccc3c(c2)[C@H]2[C@H](CCN2C(=O)C2CCCCC2)[C@H](CO)N3)c1
48	-2	-3	0.6	Cc1noc(C)c1NC(=O)N(C)C[C@H]1Oc2c(NC(=O)c3nc4ccccc4s3)cccc2C(=O)N([C@H](C)CO)C[C@@H]1C
49	-3	-13	9.6	COCC(=O)N1CC(=O)N2[C@H](C1)[C@H](c1ccc(C#CCc3ccccc3)cc1)[C@@H]2CO
50	-5	1	-5.8	N#C[C@H]1[C@H](c2ccccc2C2=CCCCC2)[C@@H](CO)N1C(=O)C1CCOCC1

(continued)
item	DUX4 txn inh	DUX4 txn inh difference	DUX4 txn inh control	mol
51	?	/	/	O=C(C[C@@H]1CC[C@@H]2[C@H](COC[C@@H](O)CN2Cc2cc(F)ccc2F)O1)N[C@@H]1CCN(Cc2ccccc2)C1
52	6	0	5.8	C[C@H](CO)N1C[C@H](C)[C@H](CN(C)Cc2ccccc2)OCc2cn(nn2)CCCC1=O
53	10	5	5.3	COCC(=O)Nc1ccc2c(c1)C(=O)N(C)[C@H]1CC[C@H](CC(=O)NCC(F)(F)F)O[C@H]1CO2
54	0	2	-1.0	O=C(C[C@H]1C=C[C@@H](NC(=O)NC2CCCCC2)[C@H](CO)O1)NCc1ccc(F)cc1
55	-1	-3	2.8	CN(C)C(=O)[C@H]1[C@H](CO)[C@H]2Cn3c(ccc(-c4cccc(F)c4)c3=O)[C@@H]1N2CCc1ccccc1
56	?	/	/	C[C@H](NC(=O)C[C@@H]1CC[C@H](NC(=O)Cc2ccccn2)[C@H](CO)O1)c1ccccc1
57	19	17	1.6	CC(=O)N(C)C[C@@H]1OCc2ccccc2-c2c(n(C)c3ccccc23)C(=O)N([C@H](C)CO)C[C@@H]1C
58	2	3	-0.7	CN1[C@H](C(=O)NC2Cc3ccccc3C2)[C@@H](CO)[C@@H]2Cn3c(ccc(C4=CCCC4)c3=O)[C@@H]21
59	-4	-4	-0.8	C[C@@H]1CCCCO[C@H](CN(C)C(=O)CCC(F)(F)F)[C@H](C)CN([C@H](C)CO)C(=O)c2cc(NC(=O)C3CCCCC3)ccc2O1
60	-1	0	-1.4	C[C@H]1CN([C@@H](C)CO)C(=O)c2ccccc2-c2ccccc2CO[C@@H]1CN(C)C(=O)Nc1ccc2c(c1)OCO2
61	-4	-3	-1.1	CO[C@H]1CC[C@H]2CCN(C)C(=O)[C@H](C)CN(C)C(=O)c3cc(C#N)ccc3OC[C@H]1O2
62	2	1	0.6	CO[C@@H](CN(C)C(=O)c1ccc2c(c1)OCO2)[C@H](C)CN([C@@H](C)CO)S(=O)(=O)c1ccc(C)cc1

Compounds from the list above that contain fluorine, in the order listed:
item	DUX4 txn inh	DUX4 txn inh difference	DUX4 txn inh control	mol
2	0	-2	1.7	O=C(CC1CC1)N1[C@@H]2CN(S(=O)(=O)c3ccccc3F)c3ccccc3[C@@H]2[C@@H]1CO
3	-2	1	-2.8	O=C(C[C@@H]1CC[C@H]2[C@@H](COC[C@H](O)CN2Cc2ccccc2F)O1)NC1CCC1
8	-4	-7	3.7	COc1ccc2c3c([nH]c2c1)[C@@H](CO)N(C(=O)c1cccnc1)CC31CN(C(=O)Nc2cccc(F)c2)C1
13	2	6	-4.0	C[C@@H]1CN([C@H](C)CO)C(=O)c2cccc(NS(=O)(=O)c3ccc(F)cc3)c2O[C@@H]1CN(C)S(=O)(=O)c1cccs1
15	3	3	-0.9	C[C@H]1CN([C@@H](C)CO)C(=O)c2cccc(NC(=O)NC3CCCCC3)c2O[C@@H]1CN(C)Cc1ccc(C(F)(F)F)cc1
19	-3	-5	1.2	O=C(c1cccc(F)c1)N1CC2(C1)[C@@H](c1ccccc1)[C@H](CO)N2C(=O)C1CCC1
21	?	/	/	N#C[C@H]1[C@@H](c2ccccc2C2=CCCC2)[C@H](CO)N1S(=O)(=O)c1cccc(F)c1
28	2	4	-1.5	O=C(C[C@@H]1C[C@H]2c3cc(NC(=O)Nc4ccc(C(F)(F)F)cc4)ccc3O[C@H]2[C@@H](CO)O1)NCc1cc(F)ccc1F
29	2	7	-5.0	C[C@H](NC(=O)C[C@@H]1C[C@@H]2c3cc(NS(=O)(=O)c4ccc(F)cc4)ccc3O[C@@H]2[C@H](CO)O1)c1ccccc1
31	-6	-8	2.2	CCCNC(=O)Nc1ccc2c(c1)OC[C@H](C)N(CCC(F)(F)F)C[C@H](C)[C@H](OC)CN(C)C2=O
38	0	-4	4.3	O=C(C[C@H]1CC[C@@H]2[C@H](COC[C@H](O)CN2C(=O)Nc2ccc(F)cc2)O1)NC1CCC1
46	7	4	3.2	CN(C)c1ccc2c(c1)[C@@H]1C[C@@H](CC(=O)NCc3cccc(F)c3)O[C@H](CO)[C@@H]1O2
51	?	/	/	O=C(C[C@@H]1CC[C@@H]2[C@H](COC[C@@H](O)CN2Cc2cc(F)ccc2F)O1)N[C@@H]1CCN(Cc2ccccc2)C1
53	10	5	5.3	COCC(=O)Nc1ccc2c(c1)C(=O)N(C)[C@H]1CC[C@H](CC(=O)NCC(F)(F)F)O[C@H]1CO2
54	0	2	-1.0	O=C(C[C@H]1C=C[C@@H](NC(=O)NC2CCCCC2)[C@H](CO)O1)NCc1ccc(F)cc1
55	-1	-3	2.8	CN(C)C(=O)[C@H]1[C@H](CO)[C@H]2Cn3c(ccc(-c4cccc(F)c4)c3=O)[C@@H]1N2CCc1ccccc1
59	-4	-4	-0.8	C[C@@H]1CCCCO[C@H](CN(C)C(=O)CCC(F)(F)F)[C@H](C)CN([C@H](C)CO)C(=O)c2cc(NC(=O)C3CCCCC3)ccc2O1

Two entries from above, with each value named.
34	CO[C@H]1CC[C@@H]2CCOc3c(C#N)cccc3C(=O)N(C)CC3(CCCCC3)CC(=O)N(C)C[C@H]1O2
  DUX4 txn inh: 2
  DUX4 txn inh difference: 2
  DUX4 txn inh control: 0.6

35	C/C=C/c1ccc([C@H]2[C@@H](CO)N(C(=O)C3CCC3)[C@@H]2CN(CC)C(=O)CC)cc1
  DUX4 txn inh: 3
  DUX4 txn inh difference: 0
  DUX4 txn inh control: 3.0

Only part of the results is shown; rates above refer to the full screens.
